Screens deposited in PubChem by ICCB-Longwood Screening Facility, Harvard Medical School.
Sa growth 42C: inhibitors of Staphylococcus aureus growth at 42 °C; relative growth, % (concentration not given with the values); hit rate 0.53% among 170,000; AID 720641; S. aureus RN4220 growth, OD600, 20 h; hits give low values;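 active means growth at 42 °C up to 50% and 20 or more points under that at 30 °C, or under 10% at both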;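 further: 300 nL library stock went into each well; scaled to the means of positive and negative controls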
GIV-Gai inh: blocks GIV peptide binding to rat Galpha-i3. hit rate 0.42% among 210,000. AID 1224905. percent of control (FP), % (concentration not given with the values). Galpha-i3/FITC-GIV peptide fluorescence polarization, 90 min; hits give low values; scaled: aluminum fluoride 0%, vehicle 100%;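 active means replicate mean at 85% of control or lower, very high polarization wells dropped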;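 further: wells of about 15 µL received 100 nL stock; the first replicate is given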
Target sequence (P08753 whole entry, looked up): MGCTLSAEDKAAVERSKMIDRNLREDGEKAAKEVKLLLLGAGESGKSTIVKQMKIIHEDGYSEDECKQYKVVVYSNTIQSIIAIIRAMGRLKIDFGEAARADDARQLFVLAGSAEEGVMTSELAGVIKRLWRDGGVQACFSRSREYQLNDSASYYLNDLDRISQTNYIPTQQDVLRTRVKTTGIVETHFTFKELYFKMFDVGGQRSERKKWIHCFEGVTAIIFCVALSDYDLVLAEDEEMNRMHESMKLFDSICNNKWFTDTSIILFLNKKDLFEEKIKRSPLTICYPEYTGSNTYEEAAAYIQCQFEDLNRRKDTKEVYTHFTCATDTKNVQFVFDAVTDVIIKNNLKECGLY
HCMV UL50-53 inh: cytomegalovirus nuclear egress complex inhibition; HTRF UL50-UL53 interaction, normalized percent inhibition; inhibition, % (no concentration beside the values); hit rate 0.15% among 190,000;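 active means both replicates at 50% or more, plus weaker picks with an unusually low signal ratio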;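 further: stock transfer was 100 nL into about 20 µL; 0% = negative control wells and 100% = wells with untagged competitor protein; inactives centre near -12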
Sa growth 42C second temp: second read-out of Sa growth 42C, no call of its own (marks repeat the call); relative growth, %; measured here: growth at 30 °C;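 optical density after 20 h as mean of two plates; 100% = untreated growth and lower means inhibition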
Numbers without * were called inactive; · = no result given; & = joins results of further samples.

entry	Molecule	Sa growth 42C	Sa growth 42C second temp	GIV-Gai inh	HCMV UL50-53 inh
1	CCOc1ccccc1NC(=O)C(C)Sc1nnc2ccc3ccccc3n12 (configuration not stated)	·	·	102	11
2	Cc1ccc(OCC(O)Cn2c(C3CC3)nc3ccccc32)cc1C (configuration not stated)	·	·	104	-14
3	CSc1nc(-c2ccccc2)c(C#N)c(N2CCCCC2)n1	99	91	100	2
4	O=C(O)c1cc2c3c(c1)C1C=CCC1C(c1ccccc1F)N3CC1CC=CC21 (configuration not stated)	·	·	74*	-19
5	CCOc1cccc2cc(C(=O)NC(C)=O)c(=Nc3ccc(Cl)cc3Cl)oc12	·	·	99	-20
6	CC(C)C(NC(=O)c1ccc(CN2CCN(c3ccccc3)CC2)cc1)C(C)C	73	102	101	·
7	O=C(Cn1c(=O)oc2cc(S(=O)(=O)N3CCCC3)ccc21)NCc1ccc(Cl)cc1	108	90	105	13
8	COc1ccc(S(=O)(=O)Nc2c(F)cc(F)cc2Br)cc1OC	91	88	100	·
9	Cn1nc(-c2ccccc2F)c2cc(C(=O)N3CCc4ccccc4C3)sc21	109	82	109	8
10	Nc1nc2ncc3c(n2n1)CCc1ccccc1-3	96	86	97	-18
11	COc1ccc(NC(=O)c2c(C)nn(-c3ccc(F)cc3)c2-n2cccc2)c(OC)c1	96	102	111	7
12	CC(=O)Nc1ccc(NC(=O)C(Cc2ccccc2)NS(=O)(=O)c2ccc3c(c2)CCC(=O)N3)cc1 (configuration not stated)	95	87	104	-24
13	CNC(=O)N1CCc2cc(S(=O)(=O)Nc3cccc(Br)c3)ccc21	·	·	104	6
14	O=C(NCCc1ccccc1)c1ccc2c(c1)N(Cc1ccccc1Cl)C(=O)c1ccccc1S2	123	97	106	·
15	Cc1ccc(NC(=O)/C(C#N)=C/c2ccc[nH]2)c(C)c1	98	101	98	-7
16	CCOCN(C(=O)Cn1c(C)nc2ccccc21)c1c(C)cccc1CC	101	91	104	3
17	CC(=O)OC1CC(C)N(C(=O)c2ccccc2)c2ccc(C)cc21 (configuration not stated)	106	84	97	-16
18	N#Cc1ccc(NC(=O)Cc2ccc3c(c2)OCCO3)cc1	90	97	·	8
19	CCc1nc2nc3c(cn2n1)C(=O)CC(C)(C)C3	·	·	99	8
20	COc1ccc(NCN2C(=O)c3ccccc3C2=O)cc1	95	86	103	-19
21	COc1cccc(N2CCN(C(=O)c3ccc4c(=O)n(CCc5ccccc5)c(=O)[nH]c4c3)CC2)c1	103	91	103	-4
22	O=C(CSc1ncc2c(n1)-c1ccccc1N(Cc1ccc(F)cc1)S2(=O)=O)c1ccc(Br)cc1	102	93	102	-10
23	Nc1c(C(=O)Nc2ccccc2Br)sc2nc(-c3cccs3)ccc12	101	79	117	-40
24	O=C(/C=C/c1ccc(Cl)cc1)Nc1nc(-c2cccs2)ns1	101	84	103	-28
25	COc1ccc(CNC(=O)CN(C)S(=O)(=O)c2ccc3c(c2)C(C)(C)C(=O)N3C)cc1	·	·	101	-15
26	CS(=O)(=NS(=O)(=O)c1ccc(-c2ccccn2)s1)c1ccccc1 (configuration not stated)	94	87	102	-32
27	CCOC(=O)CC(NC(=O)c1cc2cc(Br)cc(OC)c2oc1=O)c1ccc(OC)cc1 (configuration not stated)	90	94	103	7
28	O=S(=O)(Nc1ccc(-c2nc3cccnc3s2)cc1)c1ccccc1	98	95	102	·
29	CN(Cc1cccnc1)C(=O)CNS(=O)(=O)c1cccc(C(F)(F)F)c1	85	92	·	-3
30	O=C(Nc1cccc(-c2nc3ccccc3[nH]2)c1)c1cccc(NC(=O)c2ccco2)c1	115	75	98	-7

Continued, overlapping the part above by 2 compounds.
entry	Molecule	Sa growth 42C	Sa growth 42C second temp	GIV-Gai inh	HCMV UL50-53 inh
29	CN(Cc1cccnc1)C(=O)CNS(=O)(=O)c1cccc(C(F)(F)F)c1	85	92	·	-3
30	O=C(Nc1cccc(-c2nc3ccccc3[nH]2)c1)c1cccc(NC(=O)c2ccco2)c1	115	75	98	-7
31	Cc1cccn2c(=O)c(/C=C3\SC(=S)N(C(C)c4ccccc4)C3=O)c(N3CCN(C)CC3)nc12 (configuration not stated)	·	·	164	-16
32	CCCCn1cc(S(=O)(=O)c2ccc(OC)cc2)c(=O)c2cc(F)c(N3CCOCC3)cc21	116	89	107	·
33	CCOC(=O)C1=C(C)NC(=O)NC1C (configuration not stated)	102&105	98&85	102	-22&-14
34	CC1CCCN(C(=O)COC(=O)c2ccc(N(C)C)cc2)C1 (configuration not stated)	100	100	·	-8
35	O=S(=O)(NCc1cccs1)c1ccc(-c2nnc(C3CC3)o2)s1	·	·	104	-59
36	COc1cccc2sc(Nc3ccc(F)cc3)nc12	102	92	106	-6
37	Cc1ccc(NC(=O)CC2S/C(=N\N=C\c3cccc(O)c3)NC2=O)cc1Cl (configuration not stated)	108	101	100	8
38	CC1(C)CC(=O)C(C(=S)Nc2ccccc2)C(=O)C1	76	99	109	·
39	Cc1ccc(CSc2ncnc3c2nnn3Cc2ccccc2)cc1	90	90	105	-43
40	CC1CC(C)CN(C(=O)c2ccc3c(c2)N(Cc2ccc(F)cc2)C(=O)c2ccccc2S3=O)C1 (configuration not stated)	108	100	111	9
41	O=S(=O)(NCCc1nnc2ccc(SCc3ccccc3Cl)nn12)c1ccccc1	108	90	106	·
42	O=S(=O)(c1ccccc1)c1nc(-c2ccco2)oc1N1CCCCC1	85	82	·	-9
43	CN1CCN(S(=O)(=O)c2cccc(C(=O)C(C#N)c3ccccn3)c2)CC1 (configuration not stated)	81	91	·	-8
44	O=C1Cc2ccccc2C(=O)N1c1ccccc1	110	94	·	10
45	COc1ccc(-c2cc3nc(C)c(CCC(=O)NC4CCCCC4)c(C)n3n2)c(OC)c1	110	89	103	-43
46	CC(=O)N(C)Cc1nc2ccccc2n1Cc1ccccc1	82	84	99	-19
47	NC(=Nc1ccc(Br)cc1)c1ccccc1	108	104	99	-3
48	CCc1ccc(-n2nc3ccc(NC(=O)c4cc5ccccc5o4)cc3n2)cc1	86	86	103	-28
49	Cc1ccc(S(=O)(=O)NC2(C(=O)O)CCCCC2)cc1	89	85	103	-30
50	CCn1ccc2cc(S(=O)(=O)N3CCCN(C(=O)Nc4cc(F)ccc4F)CC3)ccc21	·	·	104	-9
51	COc1ccccc1CNC(=O)CCCn1c(=O)c2ccccc2n(Cc2ccccc2C#N)c1=O	99	100	104	3
52	COc1ccc(O)c(C=NCC(C)N=Cc2cc(OC)ccc2O)c1 (configuration not stated)	104	88	107	·
53	Cc1ccc2[nH]c(=O)c3cc(C(=O)NCc4cccc(Cl)c4)sc3c2c1	92	85	101	-18
54	C=CCN(C(=O)c1ccc2c(c1)nnn2C)c1ccccc1	90	77	100	-4
55	COc1ccccc1-c1nnc(SCC(=O)c2ccc(Cl)cc2)n1-c1ccccc1	55	25	104	-15
56	O=C(CC(=O)NCc1ccccc1)NCc1ccccc1	106	91	·	-17
57	O=S(=O)(c1ccc(Br)cc1)N1CCN=C1N1CCN(c2ccc(F)cc2)CC1	·	·	109	-8
58	CC1CCc2cc(F)ccc2N1S(=O)(=O)c1ccc(NC(=O)COCC(=O)O)cc1 (configuration not stated)	104	106	110	15
59	CCC(=O)N(c1ccccc1)C1C=CS(=O)(=O)C1 (configuration not stated)	93	84	104	-1
60	Cc1sc2nc(C(C)Sc3nnc(-c4ccc5c(c4)OCO5)o3)[nH]c(=O)c2c1C (configuration not stated)	92	73	·	-10
61	CCN1CCN(C2CCN(C(=O)C(C)(C)C)CC2)C1=O	·	·	112	-9
62	O=C(Nc1ccccc1)NC1CC2CCC(C1)N2Cc1nnnn1Cc1ccc2c(c1)OCO2 (configuration not stated)	78	47	96	11
63	COC(=O)c1c(NC(=O)CCCOc2ccc(C)cc2)sc2c1CCCC2	99	88	101	-4
64	CN(C)CCn1cc(C(=O)c2cc(F)ccc2O)cc1-c1nc2ccccc2c(=O)[nH]1	97	92	·	7
65	COC(=O)c1ccccc1S(=O)(=O)/C(C#N)=C/Nc1nc(C)cc(C)n1	91	92	97	1
66	CC1(C)c2ccccc2-n2c1cc(O)c(Cc1ccccc1)c2=O	84	22	102	-4
67	C/C=C/c1c(F)c(F)c(Oc2ccccc2N)c(F)c1F	72	91	·	-39
68	N#Cc1ccccc1CSc1nnc2ccc3ccccc3n12	104	87	102	-30
69	O=C(Nc1cccc2nsnc12)c1sc2cccc(F)c2c1Cl	·	·	103	-11
70	COc1cccc(CNC(=O)CSc2c3c(nc4ccc(Cl)cc24)CCCC3)c1OC	107	87	110	-25
71	N#CCSc1ccccc1NC(=O)CN1CCc2sccc2C1c1cccs1 (configuration not stated)	94	87	·	-26
72	CN(C)C(CN)Cc1ccccc1 (configuration not stated)	120	92	·	-9
73	CCCC(=O)Nc1cccc(N2CCn3c(nc4ccccc43)C2)c1	·	·	102	5
74	CCOC(=O)c1c(C)sc2c1Nc1cc(Cl)ccc1S2	95	83	106	·
75	CCOc1ccccc1C(=O)NCC(c1ccc2c(c1)CCCN2C)N1CCCC1 (configuration not stated)	·	·	105	2
76	CCOc1ccc(-n2c(-c3ccccc3)nc3c(cnn3-c3ccccc3)c2=O)cc1	·	·	102	-5
77	OC1CCC(C2CC3CCC2C3)CC1O (configuration not stated)	105	102	96	-3
78	Cn1cnc(S(=O)(=O)N2CCC(C(=O)NCc3ccccc3Cl)CC2)c1	121	99	102&107	-3
79	Oc1ccc(C2(c3ccc(O)cc3)CCCC2)cc1	95	64	·	-28
80	Cc1cc(N)n(-c2ccccc2C(=O)O)n1	98	84	136	·
81	CC(C)CCSc1nc2ccccc2n1CN1CCN(S(=O)(=O)c2ccc(Cl)cc2)CC1	93	82	·	-38
82	O=C1c2ccccc2S(=O)(=O)N1CC(O)COc1ccc2ccccc2c1 (configuration not stated)	·	·	103	5
83	Cc1ccc(C)c(NC(=O)Cn2nnc(C(=O)NCc3ccccc3Cl)c2N)c1	89	70	102	·
84	CCC(CC)C(=O)Nc1nnc(C(C)(C)C)s1	120	105	111	16
85	O=C1CCC(C(=O)OCC(=O)Nc2cccc(Oc3ccccc3)c2)=NN1	87	99	·	0
86	Cn1nnnc1SCC(=O)N1CCNC1=O	88	88	·	-9
87	O=C(NCC(c1cccnc1)N1CCc2ccccc2C1)C(=O)Nc1ccccc1F (configuration not stated)	106	90	107	-7
88	CCOCCCNC(=O)Cn1c(C)nc2onc(C)c2c1=O	·	·	106	-17
89	Cc1ccc(C(=O)NCCc2ccccc2)cc1	102	89	·	-11
90	COC(=O)c1cc(S(=O)(=O)Nc2ccc(OC)cc2)c[nH]1	102	79	102	·

Fetched one by one from the list above:
entry	Molecule	Sa growth 42C	Sa growth 42C second temp	GIV-Gai inh	HCMV UL50-53 inh
77	OC1CCC(C2CC3CCC2C3)CC1O (configuration not stated)	105	102	96	-3
78	Cn1cnc(S(=O)(=O)N2CCC(C(=O)NCc3ccccc3Cl)CC2)c1	121	99	102&107	-3
75	CCOc1ccccc1C(=O)NCC(c1ccc2c(c1)CCCN2C)N1CCCC1 (configuration not stated)	·	·	105	2
83	Cc1ccc(C)c(NC(=O)Cn2nnc(C(=O)NCc3ccccc3Cl)c2N)c1	89	70	102	·

More entries.
entry	Molecule	Sa growth 42C	Sa growth 42C second temp	GIV-Gai inh	HCMV UL50-53 inh
91	CC(C)c1ccc(NC(=O)Cn2c(=O)n(CCc3ccccc3)c(=O)c3ccccc32)cc1	89	83	99	-29
92	CN(CC(=O)NCc1ccco1)S(=O)(=O)c1ccc2c(c1)c(=O)n(C)c(=O)n2C	97	85	100	-30
93	CC(=O)Nc1ccc(NC(=O)c2ccco2)cc1	121	93	94	-1
94	O=C(Cc1c[nH]c2ccccc12)NCC1CCN(c2ccc(S(=O)(=O)N3CCCC3)cc2)CC1	90	81	100	3
95	CCc1nnc(SCC(=O)Nc2ccc(OC)c(OC)c2)c2cc3occc3n12	91	73	105	·
96	COC(=O)/C=C1/NCCNC1=O	97	93	107	-18
97	O=C(Nc1ccc2nc(NC(=O)c3ccccc3)sc2c1)c1ccccc1	·	·	108	7
98	CC(N)c1ccccc1OC(F)F (configuration not stated)	102	88	100	-12
99	COc1ccc(S(=O)(=O)N2CCC(C(=O)Nc3ccccc3C(F)(F)F)CC2)cc1C	95	86	108	2
